# Lassa entry: inhibitors of Lassa virus binding or entry into cells | Lassa virus pseudotyped entry inhibition, cell-based qHTS; control for the full effect not named in the record; many of its hits are not listed in these tables | Potency, µM (highest dose often 49.2 µM), inactives show top-dose activity change, negative = inhibition, most hits filed as inhibitors | 4.1% of 18,000 active; active = well fitted inhibition curve with a large enough effect; inconclusive = small, poorly fitted or top-dose-only effect; inactive = no such curve, though single readings can be large or run the other way; tested in HEK293 cells; also: luciferase read-out
# MARV entry inh: Marburg virus entry inhibition. Marburg virus pseudotype entry/binding inhibition, cell-based; control for the full effect not named in the record; many of its hits are not listed in these tables. Potency, µM (doses to about 49.2 µM), without a hit: top-dose activity change, negative = inhibition, actives largely listed as inhibitors. 6.5% of 18,000 active. AID 720532; active means well fitted inhibition curve with a large enough effect; inconclusive means small, poorly fitted or top-dose-only effect; inactive means no such curve, though single readings can be large or run the other way; tested in HEK293 cells; also: luciferase read-out
# Starred values were filed as active, the others as inactive; ? = inconclusive; . = no result given; & = joins results of further samples; ! = not confirmed by another sample; [ ] = remark or other dose. % is scaled to controls: 0 for no effect and ±100 for the full control effect; potency is read from the fitted curve at half-maximal effect.
SMILES,Lassa entry,MARV entry inh
CCCCCCCc1cc2ccccc2c2c(C=O)c(CCCC)c(C(=O)OC)n12,-16.5%[8.59 µM],?
NC(=O)c1ncn([C@@H]2O[C@H](CO)[C@@H](O)[C@H]2O)c1N,-6.8%&-5.0%,-3.2%&-17.5%
CC(CCN1CCCc2nc(C)c(C)cc21)=NOC[C@@H](O)COCc1ccco1,-16.9%[8.59 µM],?
COc1ccccc1-c1nc2cc(C(=O)NC[C@H]3CCc4ccccc4O3)cc(NC(C)=O)c2n1C,-7.7%,-13.2%
CC(=O)c1ccccc1C(=O)NCC1Cc2cccc(-c3cccnc3)c2O1 (stereo not given),-8.1%,0.4%
O=C(NC1CCCCC1)OCCN1CCN(Cc2ccccc2)CCC1=O,11.6%,23.1%
Cc1ccc(CN2[C@@H](c3ccccc3)COc3c(Cl)cccc3S2(=O)=O)cc1,?,?
CN1C(=O)CC(c2ccccc2)C1=O (stereo not given),-11.0%[17.8 µM],4.9%
Cc1ccc(CN2CC(N3CCN(C(=O)c4ccco4)CC3)CS2(=O)=O)cc1 (stereo not given),12.5%,26.7%
COc1cc(C(=O)N(Cc2cc3ccc(C)cc3nc2N(C)C)C2CC2)cc(OC)c1OC,-2.7%,-19.1%
O=c1oc2ccccc2c2c1[C@H]1O[C@](c3ccsc3)(Cc3c1ccc1ccccc31)O2,9.6%[8.59 µM],5.2%[8.59 µM]
Cc1ccccc1-c1cc2c(c3c1ccn3C)C1CCC2C1 (stereo not given),11.9%,-18.5%
CC(C)C[C@H](NC(=O)CNC(=O)[C@H](C)NC(=O)[C@H](CC(C)C)NC(=O)[C@H](CCCNC(=N)N)NC(=O)[C@H](Cc1cnc[nH]1)NC(=O)[C@@H](NC(=O)[C@@H](N)C(C)C)[C@@H](C)O)C(=O)N[C@@H](CC(C)C)C(=O)N[C@@H](CO)C(=O)N[C@@H](CCCNC(=N)N)C(=O)N[C@@H](CO)C(=O)NCC(=O)NCC(=O)N[C@H](C(=O)N[C@H](C(=O)N[C@@H](CCCCN)C(=O)N[C@@H](CC(N)=O)C(=O)N[C@@H](CC(N)=O)C(=O)N[C@@H](Cc1ccccc1)C(=O)N[C@H](C(=O)N1CCC[C@H]1C(=O)N[C@H](C(=O)N[C@@H](CC(N)=O)C(=O)N[C@H](C(=O)NCC(=O)N[C@@H](CO)C(=O)N[C@@H](CCCCN)C(=O)N[C@@H](C)C(=O)N[C@@H](Cc1ccccc1)C(N)=O)C(C)C)[C@@H](C)O)C(C)C)C(C)C)C(C)C,-10.9%,10.3%
Nc1nc2c(c(=O)[nH]1)N(C=O)C(CNc1ccc(C(=O)NC(CCC(=O)O)C(=O)O)cc1)CN2 (stereo not given),-9.2%,3.9%
CCCCC1=CC2=CC(=O)C(C)(OC(=O)CCC(=O)OC)C(=O)C2=CO1 (stereo not given),-6.2%,-1.2%

# Reprinted from the listing for reference:
SMILES,Lassa entry,MARV entry inh
CC(C)C[C@H](NC(=O)CNC(=O)[C@H](C)NC(=O)[C@H](CC(C)C)NC(=O)[C@H](CCCNC(=N)N)NC(=O)[C@H](Cc1cnc[nH]1)NC(=O)[C@@H](NC(=O)[C@@H](N)C(C)C)[C@@H](C)O)C(=O)N[C@@H](CC(C)C)C(=O)N[C@@H](CO)C(=O)N[C@@H](CCCNC(=N)N)C(=O)N[C@@H](CO)C(=O)NCC(=O)NCC(=O)N[C@H](C(=O)N[C@H](C(=O)N[C@@H](CCCCN)C(=O)N[C@@H](CC(N)=O)C(=O)N[C@@H](CC(N)=O)C(=O)N[C@@H](Cc1ccccc1)C(=O)N[C@H](C(=O)N1CCC[C@H]1C(=O)N[C@H](C(=O)N[C@@H](CC(N)=O)C(=O)N[C@H](C(=O)NCC(=O)N[C@@H](CO)C(=O)N[C@@H](CCCCN)C(=O)N[C@@H](C)C(=O)N[C@@H](Cc1ccccc1)C(N)=O)C(C)C)[C@@H](C)O)C(C)C)C(C)C)C(C)C,-10.9%,10.3%
Nc1nc2c(c(=O)[nH]1)N(C=O)C(CNc1ccc(C(=O)NC(CCC(=O)O)C(=O)O)cc1)CN2 (stereo not given),-9.2%,3.9%
CCCCC1=CC2=CC(=O)C(C)(OC(=O)CCC(=O)OC)C(=O)C2=CO1 (stereo not given),-6.2%,-1.2%

# New compounds follow.
SMILES,Lassa entry,MARV entry inh
CCOC(=O)[C@@H](N)CS,4.2%,22.4%
CC1CN(CCC(=O)N2CCCC(C(=O)c3nccn3C)C2)Cc2cc(Cl)ccc2O1 (stereo not given),10.6%,-17.0%
O=CC=O,-16.7%,-16.5%
COc1ccc(CNc2ncnc3ccc(-c4ccccc4CN(C)C)cc23)c(OC)c1,?,?
Nc1nc2c([nH]c(=S)n2C2OC(CO)C(O)C2O)c(=O)[nH]1 (stereo not given),4.6%,-22.4%
O=C(Nc1cc(C(F)(F)F)ccc1O)Nc1cc(C(F)(F)F)ccc1O,-2.7%,12.1%
COc1ccc(-c2coc3cc(O)ccc3c2=O)c(OC)c1O,3.8%,-3.3%
CC(=O)Oc1ccc2c(c1)CCC1C2CC[C@]2(C)C(OC(C)=O)CCC12 (stereo not given in full),-28.0%,-7.9%
C#CCN1C(=O)[C@]2(OCCC=C[C@@H]2C)c2cc(OC)ccc21,5.0%[8.59 µM],9.1%[8.59 µM]
O=c1[nH]c(=O)n(C2CCCO2)cc1F (stereo not given),-20.2%,-18.2%
O=C1OCCN1C(=O)[C@H]1[C@H](c2ccccc2)C(c2ccc(F)cc2)=NN1c1ccccc1,?,-2.5%
C=C1C(CCl)(CCl)C2(Cl)C(Cl)C(Cl)C1(Cl)C2(Cl)Cl (stereo not given),?,?
COC(=O)C1=C(C)NC(C)=C(C(=O)OCCSc2ccccc2)[C@@H]1C,-17.1%,-20.2%
Cc1ncc2c(c1CNC(=O)c1ccc3c(c1)OCO3)CCN(C(=O)c1scc3c1CCCC3)C2,-1.0%,1.4%
Cc1ccc2c(c1)Cc1c(C(=O)NN3CCCCC3)nn(-c3ccc(Cl)cc3Cl)c1-2,?,?
Cc1cc2c(c(=O)n1Cc1ccccc1)[C@H]1O[C@](CCCCN3C(=O)c4ccccc4C3=O)(Cc3cc(C#N)ccc31)O2,-3.2%[8.59 µM],?
Cc1ccc([C@H]2C[C@H](O)[C@@H](n3cc(COC(=O)c4ccccc4)nn3)CN2C(=O)C2CCCCC2)cc1,.,?
COc1cccc(CNC(=O)c2c(OC)cc(=O)n3c2CCN(C(=O)c2ccc(C)nc2)CC3)c1,1.1%,-12.3%
COc1cc2oc(=O)cc(-c3ccc(-c4ccc(CO)cc4)cc3)c2c(OC)c1OC,?,7.4%
COC(=O)N[C@@H](c1ccccc1)[C@]1(C(=O)OC)CCCC1=O,12.0%[8.59 µM],-27.3%[8.59 µM]
C[C@H]1CCC/C=C/C2C[C@H](O)C[C@H]2[C@H](O)/C=C/C(=O)O1 (stereo not given in full),0.631µM*!,0.631µM*
CN(Cc1ccccc1)c1cc2c(c3c1ccn3C)C1CCC2C1 (stereo not given),17.9%,-23.8%
C[C@]12CC[C@H]3[C@@H](C[C@H](F)C4=CC(=O)CC[C@@]43C)[C@@H]1CC[C@@H]2O,-12.7%,-5.4%
CCCCCCCCCCCCCCCC(=O)OC[C@H](O)[C@H]1OC(=O)C(O)=C1O,-16.8%,-7.4%
CN(c1cccc(F)c1)c1cc2c(c3c1ccn3C)C1CCC2C1 (stereo not given),-10.9%,?
CC1C(=O)N(Cc2cn(CC3CCCCC3)nn2)CCS(=O)(=O)N1Cc1ccc(-c2ccc(F)nc2)cc1 (stereo not given),?,?
C[C@@H]1O[C@@H](OC2O[C@@H](COc3cc(O)c4c(=O)cc(-c5ccc(O)cc5)oc4c3)[C@@H](O)[C@@H](O)[C@@H]2O)[C@H](O)[C@H](O)[C@H]1O (stereo not given in full),2.3%,16.1%
COc1ccc2c(c1)O[C@@H](c1cccc(C(F)(F)F)c1)[C@H](OC(=O)NC1CCCC1)C2=O,-20.5%,?
CC1=CC[C@@H](C)O[C@@]2(C1)C(=O)Nc1ccccc12,21.9%&27.1%&13.1%[8.59 µM],-8.7%&13.3%&8.9%[8.59 µM]
C#CCN1C(=O)[C@]2(OCCC=C[C@H]2C)c2ccccc21,3.7%[8.59 µM],42.8%[activator][8.59 µM]

# Among those listed so far, these have a CF3 group.
SMILES,Lassa entry,MARV entry inh
O=C(Nc1cc(C(F)(F)F)ccc1O)Nc1cc(C(F)(F)F)ccc1O,-2.7%,12.1%
COc1ccc2c(c1)O[C@@H](c1cccc(C(F)(F)F)c1)[C@H](OC(=O)NC1CCCC1)C2=O,-20.5%,?

# Given as labelled records: part of the list above
> Cc1cc2c(c(=O)n1Cc1ccccc1)[C@H]1O[C@](CCCCN3C(=O)c4ccccc4C3=O)(Cc3cc(C#N)ccc31)O2
  Lassa entry = -3.2%[8.59 µM] | MARV entry inh = ?

> Cc1ccc([C@H]2C[C@H](O)[C@@H](n3cc(COC(=O)c4ccccc4)nn3)CN2C(=O)C2CCCCC2)cc1
  Lassa entry = . | MARV entry inh = ?

# Continued:
SMILES,Lassa entry,MARV entry inh
NC(=O)Cc1ccccc1Oc1nccc(-c2c(-c3ccc(F)cc3)ncn2C2CCNCC2)n1,-29.8%,?
COCOc1cc(OC)ccc1C(=O)/C=C/c1ccc([N+](=O)[O-])cc1,-5.2%,3.7%
COc1ccc(OC)c(-c2ccc(O)c(CN3CCc4c([nH]c5ccccc45)C3)c2)c1,?,12.6µM*
O=C(NCC1Cc2cc(F)cc(-c3cnccn3)c2O1)C1COc2ccccc2O1 (stereo not given),-10.2%,13.0%
O=C1NC(=O)C(c2ccc(Cl)cc2)=C1Nc1ccc(Cl)c(C(=O)O)c1,46.8%,?
CCC1NC(=O)c2cc(S(N)(=O)=O)c(Cl)cc2N1 (stereo not given),3.0%[17.8 µM],16.4%[17.8 µM]
COc1ccccc1CCNc1ncnc2sc(C(=O)N3CCCN(C=O)CC3)c(C)c12,-9.4%,11.8%
COC(=O)CCC[N+](C)(C)C,-5.5%,15.3%
NCCC[C@@H](CC(=O)N[C@@H]1CCNC[C@H]1C(=O)N[C@H](CC(=O)N[C@@H](CCC(=O)O)CC(=O)O)Cc1ccccc1)NC(=O)C[C@H](Cc1c[nH]c2ccccc12)NC(=O)[C@@H]1CNCC[C@H]1N,-7.9%,-6.6%
COC(=O)c1ccccc1-c1cc(C)cc2c1OC(CNC(=O)C1CCCO1)C2 (stereo not given),-0.5%,-11.1%
COc1ccc2c(CN3CCOCC3)cc(=O)oc2c1,44.0%[activator],?
COc1cc(C2CC(=O)Oc3cc(C)cc(C)c32)cc(OC)c1OC (stereo not given),-11.9%,17.6%
CCCCN(CCCC)Cc1cc(=O)oc2cc(OC)ccc12,15.4%,-22.9%
CCCCC/C=C\C/C=C\C/C=C\CCCCC(=O)NCC(=O)O,1.1%,6.5%
CCCCCCCCCCCCC/C=C/[C@@H](O)[C@H](CO)NC(=O)CCCCC,-2.2%,?
Cc1c(C(=O)NCC(C)(C)CN(C)C)cnn1-c1nccc(-c2ccccc2F)n1,-19.7%,-8.0%
O=S1(=O)c2c(F)cccc2OC(COc2ccccc2)CN1CCc1ccc(F)cc1 (stereo not given),2.8%,?
CCc1cc2c(nc1CC)CCN(CCC(C)=NOCC[C@@H]1C=C[C@H](OC(C)=O)[C@@H](COC(C)=O)O1)C2,10.1%[8.59 µM],?
COc1cccc([C@@H]2Oc3ccc(Br)cc3C(=O)[C@H]2OC(=O)Nc2cc(OC)c(OC)c(OC)c2)c1,?,35.7%[activator]
O=C(NCCc1ccccn1)C1CC12CCN(C(=O)c1ccc(F)cc1Cl)CC2 (stereo not given),-1.9%,-5.7%
O=[S+]1([O-])C[C@@H](N2CCN(CCO)CC2)[C@@H](COCc2ccccc2)N1,-16.1%,-10.2%
COC(=O)N[C@H](C(C(=O)OC)=C(C)NCc1ccccc1)c1cccs1,.,8.1%[8.59 µM]
COC(=O)c1cc(CNC(=O)c2ccc3ccccc3n2)cc(NC(=O)c2cccc(OC)c2)c1,-4.6%,-6.2%
O=c1ccn(C2OC(COP(=O)(O)OP(=O)(O)OP(=O)(O)O)C(O)C2O)c(=O)[nH]1 (stereo not given),4.6%,15.1%
COC(=O)C1CCN(Cc2ccc3c(c2)CN(C(=O)c2ncc(C)[nH]2)CCO3)CC1,-3.4%,-13.2%
Cn1cnnc1Sc1ccc(CN2CCOc3ccc(C4=CCCCC4)cc3C2)o1,-3.4%,-1.2%
CCCC(=O)OC[C@@H](OC(=O)CCC)[C@@H](OC(=O)CCC)[C@H](Cn1c2nc(=O)[nH]c(=O)c-2nc2cc(C)c(C)cc21)OC(=O)CCC,?,?
CCN1CCCC1CNC(=O)c1cc(S(=O)(=O)CC)ccc1OC (stereo not given),-21.2%&-2.4%,5.0%&4.8%
CC(C)CNC(=O)c1cn(C2CCN(Cc3nc4ccccc4s3)CC2)nn1,-4.8%,2.82µM*
CC(=O)c1ccc(F)c(-c2cc(C)cc3c2OC(CNC(=O)c2cccnc2)C3)c1 (stereo not given),?,?
COc1ccccc1CNc1ccnc(-c2ccccc2C(F)(F)F)n1,-7.5%,-10.2%
O=C(O)C1=CC(=C(c2ccc(O)c(C(=O)O)c2)c2ccc(O)c(C(=O)O)c2)C=CC1=O,2.6%,0.445µM*
CC(C)=CCOc1ccc(/C=C/C(=O)c2ccc(OCC=C(C)C)cc2OCC(=O)O)cc1,-19.2%,20.1%
COCC1CCCN(Cc2ccc3c(c2)CN(C(=O)c2sc(C)nc2C)CCO3)C1 (stereo not given),-7.0%,-11.1%
CSCC[C@H](NC(=O)[C@H](Cc1ccccc1)NC[C@@H](NC[C@@H](N)CS)C(C)C)C(=O)O,1.2%&7.8%,-0.9%&10.3%
CC(=O)OC1CC[C@]2(C)C(CC[C@@]3(C)C2C(=O)C=C2C4C(C)C(C)CC[C@@]4(C(=O)O)CCC23C)C1(C)C (stereo not given in full),-15.2%,-17.1%
NCCS(=O)O,-14.3%&6.3%,15.8%&7.6%
